# Rango-impB inh: inhibitors of Rango-importin beta complex formation. Q14974. Rango CFP/YFP FRET sensor + importin beta, 45 min. Potency, µM (doses to about 92.2 µM), inactives show at the top dose inhibition of complex formation. actives 0.031% (n = 340,000). AID 540263; active = rising FRET ratio curve, often small or poorly fitted; inconclusive = mostly compound fluorescence or quenching in the first reads; inactive = flat curves in all reads;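 further: potency means the concentration at half of the fitted maximal effect; 0% = DMSO wells and 100% = buffer wells lacking importin beta; nearly all actives have a fitted effect of over 15% in size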
# Target sequence (Q14974 whole entry, looked up): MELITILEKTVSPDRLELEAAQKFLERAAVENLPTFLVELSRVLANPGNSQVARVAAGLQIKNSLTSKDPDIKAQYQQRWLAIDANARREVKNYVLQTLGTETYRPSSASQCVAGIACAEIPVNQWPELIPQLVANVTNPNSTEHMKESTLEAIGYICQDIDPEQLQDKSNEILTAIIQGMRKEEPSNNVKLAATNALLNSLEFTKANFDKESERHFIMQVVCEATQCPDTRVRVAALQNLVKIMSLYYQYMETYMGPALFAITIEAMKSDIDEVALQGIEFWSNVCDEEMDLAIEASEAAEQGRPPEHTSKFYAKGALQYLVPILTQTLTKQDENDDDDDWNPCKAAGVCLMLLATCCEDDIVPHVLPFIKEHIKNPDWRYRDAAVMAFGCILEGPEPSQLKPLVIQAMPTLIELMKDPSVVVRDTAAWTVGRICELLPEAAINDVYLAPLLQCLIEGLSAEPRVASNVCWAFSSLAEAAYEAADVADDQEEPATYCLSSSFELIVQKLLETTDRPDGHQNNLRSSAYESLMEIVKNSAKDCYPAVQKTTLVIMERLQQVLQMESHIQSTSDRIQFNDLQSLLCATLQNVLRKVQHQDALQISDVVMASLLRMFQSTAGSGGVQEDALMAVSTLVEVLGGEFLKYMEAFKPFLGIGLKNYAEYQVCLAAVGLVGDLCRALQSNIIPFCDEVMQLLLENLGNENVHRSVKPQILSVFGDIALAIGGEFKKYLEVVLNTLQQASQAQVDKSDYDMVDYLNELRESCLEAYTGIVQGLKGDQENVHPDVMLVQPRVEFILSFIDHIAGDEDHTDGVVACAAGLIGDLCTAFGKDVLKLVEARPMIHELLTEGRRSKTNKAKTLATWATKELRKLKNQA
#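 FRET biosensor (snurportin 1 IBB flanked by EYFP and cerulean), 50 nM, with compound 5 min, then 0.125 microM importin beta in PBS, 1 mM DTT, 0.02% Tween-20, 0.1% BSA. CFP/YFP ratio read after 45 min at room temperature; pre-read flags interference.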
# GLA inh pH 4.5: alpha-galactosidase A (human) inhibition, pH 4.5; P06280; purified enzyme, 4-MU-alpha-Gal fluorescence, pH 4.5; activity change, negative = inhibition, % at 105 µM; 230,000 tested, under 10 active; inconclusive = small, poorly fitted or top-dose-only inhibition, or a rising curve; inactive = flat fitted curve, though single readings scatter; no compound was filed as active;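 further: 0% = full activity with enzyme and -100% = basal without enzyme; dose as in the result columns while the protocol names 77 µM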
# miR-21 reporter: miR-21 reporter, rising signal. HeLa miR-21 FLuc reporter, luciferase, 48 h. Potency, µM (top dose mostly 38.3 µM), inactives show at the highest dose reporter change, positive = more light. 340,000 tested, under 10 active; active = well fitted rising curve with a large enough effect; inconclusive = small, poorly fitted or top-dose-only effect; inactive = no such curve, though single readings can be large or run the other way;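 further: % of control where 0% means no effect; miR-21 action dims this reporter so a rising signal means less miR-21 action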
#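 Using DMEM plus 10% FBS, HeLa miR-21-FLuc cells are incubated with test compounds (final up to about 40uM) for 48 hours; firefly luciferase signal is then imaged following reagent-mediated lysis.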
# Rango release inh: prevents RanGTP from dissociating the Rango-importin beta complex. O95149+P62826. Biochemical FRET Rango-importin beta, RanGTP-induced dissociation. Potency, µM (doses to about 46.1 µM), inactives show top-dose activity change, negative = inhibition. actives 0.071% (n = 340,000). AID 540253; active means falling FRET ratio curve, often poorly fitted, with flat reads before Ran was added; inconclusive means other falling curves, or compound fluorescence or quenching; inactive means flat or rising ratio curve;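 further: potency means the concentration at half of the fitted maximal effect; % of control where 0% means no effect; nearly all actives have a fitted effect of over 45% in size; -100% = wells without RanGTP and RCC1; the record marks most hits as doubtful in a second field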
#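 Recombinant Rango FRET biosensor (EYFP–snurportin 1 IBB–cerulean CFP10) at 0.1 uM premixed with 0.25 uM importin beta in PBS, 1 mM DTT, 0.02% Tween-20, 0.1% BSA. Compound added 5 min; RanGTP-RCC1 (0.6 uM Ran, 2 mM GTP, 0.2 uM RCC1) then triggers release, read at 45 min.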
# * = called active by the depositor; ? = inconclusive; · = no result given; [ ] = another dose, or the depositor's remark.
miR-21 reporter	Rango release inh	GLA inh pH 4.5	Rango-impB inh	SMILES
·	7%	·	-1.6%	Cc1ccc2c(c1)[C@H]1[C@H](CO2)[C@H](c2ccccc2)[C@]2(C)C(=O)N(C)CC(=O)N12
-9%	-15%	-15	-0.3%	CNc1nc(Sc2ccccc2)cc(C(F)(F)F)n1
-6%	?	1	?	COc1ccc(/C=N/N=C2/CC(C)(C)Cc3n[nH]c(=O)cc32)cc1
-4%	-1%	2	5.8%	CCCN(CCC)c1cc(Cl)nc(N)n1
1%	-10%	2	-0.8%	CC(=O)Nc1cccc(/C(C)=N/NS(=O)(=O)c2ccc(C)cc2)c1
·	4%	·	-1.3%	Cc1ccc(F)cc1S(=O)(=O)Nc1cccc(C(=O)N2CCCC(C(N)=O)C2)c1 (centres undefined)
-9%	-4%	0	-4.2%	COc1ccc(-c2ccc(NCCC3=CCCCC3)nn2)cc1OC
-16%	9%	-14	?	CCOC(=O)/C(C#N)=C\c1cn(C)c2ccccc12
0%	2%	-2	-1.4%	CSc1ccccc1NC(=O)CN(C)C(=O)c1cccc(S(=O)(=O)N(C)C)c1
1%	1%	2	-3.7%	Cc1c(Cl)ccc2c1NC(=O)[C@]21N[C@@H](CCC(N)=O)[C@H]2C(=O)N(c3ccc(F)cc3)C(=O)[C@H]21
-34%	6%	-3	0.2%	Cc1ccsc1/C=N/NC(=O)C1CC(=O)N(c2ccccc2)C1 (centres undefined)
-65%	?	-6	?	COc1ccc(/C=C/C=C2\NC(=S)NC2=O)cc1

# The results go on.
miR-21 reporter	Rango release inh	GLA inh pH 4.5	Rango-impB inh	SMILES
·	33%	·	0.2%	CN(C)CCNCCCNc1c2ccccc2nc2cccc([N+](=O)[O-])c12
1%	?	11	-3.7%	O=C1Nc2ccccc2C(=O)N2CCCCC12 (centres undefined)
2%	-7%	·	-0.3%	COc1ccc(CCN(C)C(=O)Cn2c(=O)oc3ccccc32)cc1OC
-3%	-15%	-6	4.6%	Cc1ccc(C(=O)N2CCN(C(=O)CN3CCOCC3)C2)cc1
-66%	4%	-7	-2.7%	CCOC(=O)c1snc(C(=O)NC2CCCCC2)c1N
2%	-1%	·	-3.6%	Cc1ccccc1NS(=O)(=O)c1ccc(C(=O)NN2CCCCC2)cc1
-4%	8%	2	-2.1%	O=C(Cc1ccccc1)Nn1c(-c2ccccc2)nc2ccccc2c1=O
1%	-20%	·	1.0%	CC1CN(C(=O)c2ccc(COc3ccccc3Cl)o2)CC(C)O1 (centres undefined)
-22%	-3%	-7	2.1%	Cc1nn(C)cc1CN(C)C(=O)c1cc(COc2ccc(F)cc2F)on1
·	-3%	·	-2.2%	COc1cccc(NC(=O)CN(C)C(=O)CN2C(=O)NC3(CCCC3)C2=O)c1
·	3%	·	-0.9%	COc1ccc([C@H]2CC(=O)C=C(c3ccc(C)cc3)C2)cc1OC
-6%	24%	·	3.8%	Cc1ccc(C)c(N2CCN(S(=O)(=O)CC34CCC(CC3=O)C4(C)C)CC2)c1 (centres undefined)

# Further results follow.
miR-21 reporter	Rango release inh	GLA inh pH 4.5	Rango-impB inh	SMILES
-1%	-4%	5[21.1 µM]	-0.1%	Cc1ccc(NS(=O)(=O)c2ccc3[nH]c(=O)sc3c2)cc1
3%	-23%	-1	?	Cc1cccc(CC2SC(N)=NC2=O)c1 (centres undefined)
2%	-1%	6	-0.5%	C=CCn1c(SCC(=O)Nc2nnc(CC)s2)nnc1-c1ccncc1
-18%	-2%	-9	5.3%	Cc1cc(SCc2ccccc2)nc(=O)[nH]1
-1%	0%	·	5.7%	COC(=O)C1=C(C)N(CCCC(=O)O)C(=O)NC1c1ccc(Br)cc1 (centres undefined)
·	-2%	·	-1.2%	O=C(C[C@@H]1C/C=C/CC[C@H](Cc2ccc(F)cc2)C(=O)OC[C@@H](Cc2ccccc2)NC1=O)N[C@H](CO)Cc1ccccc1
·	-1%	·	0.2%	COc1ccc(CNS(=O)(=O)CCNC(=O)c2ccccc2)cc1
·	5%	·	2.7%	CCOC(=O)c1cc(-c2ccccc2C)n(Cc2cc(C)no2)n1
-48%	1%	3	-0.6%	O=C(N/N=C/c1ccc(COc2ccc(Br)cc2)o1)c1ccco1
15%	-4%	·	-2.8%	CC(C)c1ccc(NC(=O)CCNS(=O)(=O)c2cc(Br)cnc2N)cc1
·	-17%	·	?	C#CCOCCOCCOCCNc1nc(N2CCN(C(=O)CCCCCCCCCCNC(=O)[C@H](CCCCN)n3cc(CCO)nn3)CC2)nc(N2CCN(C(=O)CCCCCCCCCCNC(=O)[C@H](CCCCN)n3cc(C[C@@H](C)CC)nn3)CC2)n1
-5%	3%	0	-2.7%	Cc1c(C)c(C)c(S(=O)(=O)N2CCSCC2)c(C)c1C

# Later entries.
miR-21 reporter	Rango release inh	GLA inh pH 4.5	Rango-impB inh	SMILES
-7%	-6%	3	0.2%	CCS(=O)(=O)N1CCC(C(=O)N2CCc3ccccc3C2)CC1
-5%	-9%	-1	0.8%	CCOc1ccc2[nH]c(=O)c(CN(Cc3ccc(F)cc3)C(=O)N3CCCC3)cc2c1
-12%	7%	0	0.2%	Cc1nnc(-c2cnn(C)c2N)n1CCCN1CCOCC1
-5%	0%	·	-0.4%	CC(=O)N1CCC(N(CCCOC(C)C)S(=O)(=O)c2ccc([N+](=O)[O-])cc2)CC1
1%	-3%	-3	?	Cn1c(=O)n(CCc2ccccc2)c(=O)c2c1nc1n2CCCN1Cc1ccccc1
-25%	25%	-14	-0.5%	COc1ccc(C2CC(c3ccccc3)=NN2C(=O)COC(=O)c2cccnc2)cc1 (centres undefined)
-3%	3%	-2	0.1%	O=C(NNc1ccccc1)/C(=C\c1cccnc1)NC(=O)c1ccccc1
0%	-6%	-6	4.7%	COCCNC(=O)CSc1nc2ccccc2c(=O)n1-c1cccc(OC)c1
0%	1%	-3	2.4%	CC(NC(=O)c1ccccc1)c1ccc(F)cc1 (centres undefined)
-2%	4%	4	0.2%	NC(=O)c1ncc(C(F)(F)F)cc1Oc1ccc(F)cc1
15%	0%	-2	6.3%	COc1ccccc1NC(=O)Cc1csc(NC(=S)Nc2ccccc2)n1
·	-21%	·	-2.3%	CN(C)CCCn1c2c(c(SCC(=O)Nc3ccc4c(c3)OCCO4)nc1=O)CCC2

# (more compounds)
miR-21 reporter	Rango release inh	GLA inh pH 4.5	Rango-impB inh	SMILES
0%	4%	·	-2.7%	CCn1c(=O)c2ccccc2n(CC(=O)N2CCCc3ccccc32)c1=O
-10%	16%	-11	5.5%	Cc1ccc(-c2nn(-c3cc(Cl)ccc3[N+](=O)[O-])c(=O)c3ccccc23)cc1C
4%	1%	-12	-2.6%	CCCCCOC(=O)Cc1c(O)c2ccccc2n(C)c1=O
-40%	·	2	·	CCCCc1ccc(-c2nc(NC(=O)C3C4CCC(O4)C3C(=O)O)sc2C)cc1 (centres undefined)
21%	·	-7	·	O=C1[C@H](CC[C@H](O)c2ccc(F)cc2)[C@@H](c2ccc(O)cc2)N1c1ccc(F)cc1
-7%	-17%	-4	-0.1%	CCN(/N=C/C=C/c1ccccc1)c1cc(=O)n(C)c(=O)[nH]1
0%	-16%	·	0.1%	Cc1ccc(C(=O)Nc2ccc3c(c2)C(=O)N(CC2CCCO2)C3=O)cc1 (centres undefined)
3%	-3%	1	6.4%	COc1ccc(Cl)cc1NC(=O)COc1cccc(-n2cnnn2)c1
2%	2%	·	1.1%	COc1ccc([N+](=O)[O-])c(OC)c1C(=O)NC(=O)Nc1c(C)cccc1C
·	-3%	·	-1.6%	CCOc1ccc(-n2ccn(CC(=O)NCCc3ccccc3)c(=O)c2=O)cc1
-7%	1%	0	-2.2%	Cc1ccc(-c2nnc(SCC(=O)OC(C)C)n2N)cc1
3%	3%	-3	0.1%	O=C(COc1ccccc1)NNC(=O)COc1ccc([N+](=O)[O-])cc1

# (more compounds)
miR-21 reporter	Rango release inh	GLA inh pH 4.5	Rango-impB inh	SMILES
-4%	-14%	·	0.1%	CN(Cc1ccccc1)CC1CCCN(CCc2ccccc2F)C1 (centres undefined)
0%	3%	?	5.2%	Nc1c(S(=O)(=O)c2ccccc2)c2nc3ccccc3nc2n1C1CC1
8%	-10%	-18	-4.2%	COc1cc(Cl)c(C)cc1NC(=O)CSc1nnc(-c2ccco2)n1CC(C)C
·	18%	·	0.1%	CC(=O)N/C(=C\c1ccccc1)C(=O)OCC(=O)c1ccc(F)cc1
·	-8%	·	-1.8%	CCCCN(C(=O)CCN1C(=O)C2CC=CCC2C1=O)c1c(N)n(CCCC)c(=O)[nH]c1=O (centres undefined)
-1%	-20%	4	0.0%	O=C(/C=C1\NC2(CCCC2)Cc2ccccc21)N1CCOCC1
-11%	6%	·	-3.9%	Cc1ccc(Sc2ncccc2C(=O)N(C)Cc2cccs2)c(C)c1
-42%	-2%	-2	-1.2%	CCOc1ccc(/C=C/C(=O)c2ccccc2)cc1
-46%	0%	-5	2.5%	O=C(COc1cccc2cccnc12)Nc1ccccc1
-3%	0%	4	-0.1%	O=c1nc(Nc2ccccc2)sc2ccc([N+](=O)[O-])cc12
1%	-11%	1	-3.4%	O=C(COC(=O)c1ccc2c(c1)S(=O)(=O)N=C1CCCCCN12)NCc1cccs1
-13%	-17%	·	-2.8%	Cc1ccc(C(=O)N2CCC(C(=O)NC3CCCCCC3)CC2)cc1

# Looked up by structure from above, 5 records:
miR-21 reporter	Rango release inh	GLA inh pH 4.5	Rango-impB inh	SMILES
-11%	6%	·	-3.9%	Cc1ccc(Sc2ncccc2C(=O)N(C)Cc2cccs2)c(C)c1
-42%	-2%	-2	-1.2%	CCOc1ccc(/C=C/C(=O)c2ccccc2)cc1
8%	-10%	-18	-4.2%	COc1cc(Cl)c(C)cc1NC(=O)CSc1nnc(-c2ccco2)n1CC(C)C
-3%	0%	4	-0.1%	O=c1nc(Nc2ccccc2)sc2ccc([N+](=O)[O-])cc12
-13%	-17%	·	-2.8%	Cc1ccc(C(=O)N2CCC(C(=O)NC3CCCCCC3)CC2)cc1

# (more compounds)
miR-21 reporter	Rango release inh	GLA inh pH 4.5	Rango-impB inh	SMILES
-3%	1%	-8	-3.4%	O=C(CNC(=O)C1CCCCC1)Nc1cc(Cl)ccc1Cl
·	-9%	·	0.8%	Cc1csc(CNc2ncnc3ccc(-c4ccc5c(c4)OCO5)cc23)c1
-4%	0%	0	0.0%	Cc1ccccc1Nc1nc(N)nc(CN2CCN(Cc3ccc4c(c3)OCO4)CC2)n1
23%	0%	-3	4.0%	CN(C1=C(NC(=O)c2ccc(Cl)cc2)C(=O)c2ccccc2C1=O)c1ccccc1
-4%	6%	-6	-1.1%	CCN(c1cccc(C)c1)S(=O)(=O)c1cccc2nsnc12
10%	-13%	-7	-0.5%	Cc1ccc(S(=O)(=O)NCCC(=O)Nc2ccc(Cl)c(Cl)c2)cc1
-7%	-5%	·	2.3%	COc1ccc(-c2cc3c(=O)n(CC(=O)NCc4ccc(Cl)cc4)ncn3n2)cc1
·	23%	·	1.0%	CCN1CCN(S(=O)(=O)c2ccc(Cl)c(C(=O)N(CC)Cc3ccccc3)c2)CC1
-6%	17%	8	-1.4%	CCc1cc2c(=O)[nH]c(Cc3ccc(Cl)cc3)nc2s1
22%	-6%	-13	3.1%	COc1ccc(NS(=O)(=O)c2ccc(OC)c(N(C)S(=O)(=O)c3ccc(Cl)cc3)c2)cc1
-4%	-1%	0	-3.9%	Cn1c(N)c(C(=O)COC(=O)c2nc(Cl)ccc2Cl)c(=O)n(C)c1=O
-22%	5%	-5	4.9%	CCCC1CCC(c2nc(-c3cccnc3)no2)CC1 (centres undefined)

# Next part:
miR-21 reporter	Rango release inh	GLA inh pH 4.5	Rango-impB inh	SMILES
8%	6%	-6	-4.5%	CC1Cc2ccccc2N1C(=O)COC(=O)C1(c2ccccc2F)CCCC1 (centres undefined)
-35%	0%	-1	0.1%	COc1ccc(/C=N/NC(=O)c2ccc(O)cc2O)cc1CSc1ccccn1
·	-19%	·	0.9%	CCN(C(=O)COC(=O)[C@H](C)N=C1NS(=O)(=O)c2ccccc21)C1CCS(=O)(=O)C1 (some centres undefined)
-4%	-6%	-6	1.7%	CN1CCc2c(OCC(=O)N3N=C(c4cccs4)CC3c3ccc(F)cc3)cccc2C1=O (centres undefined)
0%	0%	·	4.3%	Cc1ccc(-n2ncc3c(=O)n(CC(=O)N(C(C)C)C(C)C)cnc32)cc1

# The list is partial; the hit share may differ from the screen's.
